DUX4 inh – blocks DUX4-driven transcriptional activation. activity change, negative = inhibition, % (no concentration beside the values). 293T-iDUX4 ZSCAN4-Gaussia luciferase reporter, 24 h; stronger effect = lower value. actives 0.8% (n = 37,000);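 active means -10% or lower and over 25 points stronger than a control reporter; inconclusive means -10% or lower with a smaller gap; inactive means above -10%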;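 further: 0% = median of neutral control wells and -100% = median of positive control wells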
DUX4 inh difference – recorded beside DUX4 inh, whose call it bears; Gaussia minus Italica difference, %; measured here: selective DUX4 reporter inhibition;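 worked out from the two reporters; negative = selective loss of the DUX4 reporter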
DUX4 inh control – second read-out of DUX4 inh, no call of its own (marks repeat the call); activity change, negative = inhibition, %; measured here: Italica tet-on control reporter;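 0 = neutral control and -100 = positive control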
* hit, by the source's call; u = inconclusive; x = not tested or not shown; & = joins results of further samples.

Values in the order – DUX4 inh difference, DUX4 inh, DUX4 inh control
1	O=C(O)C[C@@H]1CC[C@@H]2[C@H](COC[C@H](O)CN2S(=O)(=O)c2ccc(F)cc2)O1
    -5, 0, 5.4
2	COC(=O)N(C)C[C@@H]1OCc2ccccc2-c2ccccc2C(=O)N([C@@H](C)CO)C[C@@H]1C
    2, -1, -3.1
3	O=C(Cc1ccncc1)NCC[C@H]1CC[C@H](NS(=O)(=O)c2ccccc2Cl)[C@H](CO)O1
    2, -2, -4.0
4	O=C(C1CC1)N1CC[C@H]2[C@H](CO)Nc3ccc(-c4ccc(F)cc4)cc3[C@H]21
    -2, 2, 4.2
5	CO[C@H]1CN(C)C(=O)c2cc(NC(=O)c3cnccn3)ccc2OC[C@@H](C)N(CCc2ccccc2)C[C@@H]1C
    -2, -4, -1.5
6	COc1ccc(S(=O)(=O)Nc2ccc3c(c2)C(=O)N([C@H](C)CO)C[C@H](C)[C@@H](CN(C)C(=O)NC2CCCCC2)O3)cc1
    0, -1, -0.3
7	CO[C@@H](CN(C)S(=O)(=O)c1ccc(Cl)cc1)[C@H](C)CN(C(=O)Nc1ccccc1F)[C@H](C)CO
    -8, -3, 5.6
8	C[C@H]1CN([C@@H](C)CO)S(=O)(=O)c2ccc(-c3ccncc3)cc2O[C@H]1CN(C)S(C)(=O)=O
    -5, -1, 4.8
9	O=C(C[C@H]1C[C@H]2c3cc(NC(=O)Nc4ccccc4F)ccc3O[C@H]2[C@@H](CO)O1)NCC(F)(F)F
    2, 3, 0.9
10	CCCN1C[C@@H](C)[C@H](OC)CN(C)C(=O)c2ccc(NC(=O)C3CCOCC3)cc2OC[C@@H]1C
    -3, 3, 6.2
11	CCCC(=O)N1CCC2(CC1)CN(C(C)=O)[C@H](CO)c1c2c2ccc(OC)cc2n1C
    21, 14, -6.8
12	CCCNC(=O)Nc1ccc2c(c1)C(=O)N(C)[C@@H]1CC[C@@H](CC(=O)NCc3ccccc3)O[C@H]1CO2
    4, 1, -2.3
13	COc1ccc2c3c(n(C)c2c1)[C@H](CO)N(CC1CC1)CC31CCN(C(=O)c2cccc(F)c2)CC1
    -7, -3, 4.2
14	O=C(CCN1CCCCC1)N[C@@H]1CC[C@@H](CCn2cc(-c3cccc(F)c3)nn2)O[C@@H]1CO
    -14, -7, 6.7
15	CC(C)CC#Cc1ccc([C@@H]2[C@@H](CO)N3CCCCN(C(=O)NC4CCCC4)C[C@@H]23)cc1
    x, u, x
16	C[C@H]1CN([C@@H](C)CO)C(=O)CCCn2nncc2CO[C@H]1CN(C)C(=O)Nc1ccc2c(c1)OCCO2
    -3, 0, 3.2
17	CCCNC(=O)N[C@H]1CC[C@@H](CC(=O)N2CCN(C)CC2)O[C@@H]1CO
    6, 11, 5.4
18	C[C@@H]1CCCCO[C@H](CN(C)CC2CCCCC2)[C@@H](C)CN([C@H](C)CO)C(=O)c2cc(NC(=O)Nc3ccc(C(F)(F)F)cc3)ccc2O1
    3, 5, 2.1
19	COc1ccc(-c2ccc3c(c2)[C@@H]2[C@@H](CCN2C(=O)C2CCCCC2)[C@@H](CO)N3C)cc1
    x, u, x
20	CC(=O)N1[C@H](C(=O)Nc2ccccc2)[C@@H](CO)[C@@H]2Cn3c(ccc(C4=CCCCC4)c3=O)[C@@H]21
    -1, 0, 0.9
21	CN(C)C(=O)c1ccc(-c2ccc([C@@H]3[C@H](CO)N4CCCCN(C(=O)C5CC5)C[C@@H]34)cc2)cc1
    8, 25, 16
22	CC(=O)N1[C@H](CO)[C@@H]2c3ccccc3N(S(=O)(=O)c3ccccc3C)C[C@@H]21
    1, -1, -2.4
23	COc1ccccc1C(=O)N1C[C@H]2[C@@H](c3ccccc31)[C@@H](CO)N2C(=O)Cc1ccccc1
    3, 3, -0.2
24	C/C=C/c1ccc([C@@H]2[C@@H](CO)N(C(C)=O)[C@@H]2CN(C)S(C)(=O)=O)cc1
    -6, -3, 2.6
25	N#C[C@@H]1[C@H](c2ccc(C#Cc3ccccc3F)cc2)[C@H](CO)N1C(=O)C1CCC1
    -8, 0, 7.6
26	COc1ccc(CNC(=O)C[C@@H]2C=C[C@H](NC(=O)c3cccc(F)c3)[C@H](CO)O2)cc1
    7, 10, 2.3
27	CCCNC(=O)N1[C@@H]2CNC[C@H]1C2c1ccc(-c2ccccc2F)cc1 (stereo partly specified)
    -4, 13, 17
28	COC(=O)C[C@H]1CC[C@H]2[C@@H](COC[C@H](O)CN2S(=O)(=O)c2ccccc2OC)O1
    -10, 0, 9.9
29	CN(C)C(=O)c1cccc(-c2ccc([C@H]3[C@@H](C#N)N(C(=O)C4CCCCC4)[C@H]3CO)cc2)c1
    0, 6, 5.7
30	COc1ccc2c3c(n(C)c2c1)[C@H](CO)N(Cc1ccncc1)CC31CN(C(=O)C2CCCCC2)C1
    4, 14, 10
31	CCCC#Cc1ccc([C@H]2[C@H](CO)N3C(=O)CN(C(=O)Nc4cccc(F)c4)C[C@@H]23)cc1
    -26*, -69*, -43*
32	C[C@@H]1CN([C@@H](C)CO)S(=O)(=O)c2ccc(-c3cccc(C(=O)N(C)C)c3)cc2O[C@@H]1CN(C)Cc1ccc2c(c1)OCO2
    4, -1, -4.9
33	CC(C)NC(=O)N(C)C[C@@H]1OCCCC[C@@H](C)Oc2ccc(NS(C)(=O)=O)cc2C(=O)N([C@H](C)CO)C[C@@H]1C
    -1, -2, -0.5
34	O=C(c1ccncc1)N1CC[C@@H]2[C@H](CO)Nc3ccc(-c4ccccc4)cc3[C@@H]21
    1, -3, -4.8
35	CN(C)CCCNC(=O)C[C@@H]1C=C[C@H](NC(=O)Cc2cccnc2)[C@@H](CO)O1
    2, 1, -1.0
36	CCCNC(=O)N1CC2(C1)CN(C(=O)CCC)[C@@H](CO)c1[nH]c3cc(OC)ccc3c12
    -2, 13, 15
37	CCC(=O)N1CC(=O)N2[C@H](C1)[C@H](c1ccc(C3=CCCCC3)cc1)[C@@H]2CO
    -7, 1, 8.0
38	CN(C)C(=O)c1cccc(-c2ccc3c(c2)[C@H]2[C@H](CCN2C(=O)c2cnccn2)[C@H](CO)N3)c1
    -1, -4, -3.5
39	O=C(C[C@@H]1CC[C@@H]2[C@H](COC[C@@H](O)CN2C(=O)Nc2ccc(Cl)c(Cl)c2)O1)NCc1ccncc1
    2, 12, 10
40	CO[C@@H]1CN(C)C(=O)c2cc(NS(=O)(=O)c3ccc(Oc4ccccc4)cc3)ccc2OC[C@H](C)NC[C@@H]1C
    -5, -1, 3.7

Retrieved by structure from above, 6 records:
Values in the order – DUX4 inh difference, DUX4 inh, DUX4 inh control
37	CCC(=O)N1CC(=O)N2[C@H](C1)[C@H](c1ccc(C3=CCCCC3)cc1)[C@@H]2CO
    -7, 1, 8.0
21	CN(C)C(=O)c1ccc(-c2ccc([C@@H]3[C@H](CO)N4CCCCN(C(=O)C5CC5)C[C@@H]34)cc2)cc1
    8, 25, 16
39	O=C(C[C@@H]1CC[C@@H]2[C@H](COC[C@@H](O)CN2C(=O)Nc2ccc(Cl)c(Cl)c2)O1)NCc1ccncc1
    2, 12, 10
22	CC(=O)N1[C@H](CO)[C@@H]2c3ccccc3N(S(=O)(=O)c3ccccc3C)C[C@@H]21
    1, -1, -2.4
26	COc1ccc(CNC(=O)C[C@@H]2C=C[C@H](NC(=O)c3cccc(F)c3)[C@H](CO)O2)cc1
    7, 10, 2.3
28	COC(=O)C[C@H]1CC[C@H]2[C@@H](COC[C@H](O)CN2S(=O)(=O)c2ccccc2OC)O1
    -10, 0, 9.9

Next entries follow:
Values in the order – DUX4 inh difference, DUX4 inh, DUX4 inh control
41	COC(=O)C[C@H]1C[C@H]2c3cc(N)ccc3O[C@H]2[C@H](CO)O1
    3, 6, 2.5
42	COc1cccc(-c2ccc(C3[C@H]4CNC[C@@H]3N4Cc3cc(F)ccc3F)cc2)c1 (stereo partly specified)
    -9&-7, -2&17, 7.0&24
43	C[C@H]1CN([C@@H](C)CO)C(=O)Cc2cc(NS(=O)(=O)c3cn(C)cn3)ccc2O[C@H]1CN(C)C(=O)NC1CCCCC1
    -3, -1, 2.2
44	CCCC(=O)Nc1ccc2c(c1)C(=O)N(C)C[C@@H](OC)[C@H](C)CN(C(=O)c1ccccn1)[C@H](C)CO2
    4, 2, -2.5
45	CO[C@@H]1CN(C)C(=O)c2ccc(NC(=O)NC3CCCCC3)cc2OC[C@@H](C)N(C(C)=O)C[C@H]1C
    2, 2, -0.1
46	CN(C)C(=O)c1ccc(-c2ccc([C@H]3[C@@H](CO)N4CCCCN(C(=O)C5CC5)C[C@H]34)cc2)cc1
    3, 8, 4.4
47	CCC(=O)NC[C@@H]1[C@H](c2ccccc2)[C@@H](CO)N1C(=O)C1CC1
    -4, 3, 7.0
48	O=C(NCCc1ccncc1)[C@H]1[C@H](CO)[C@H]2Cn3c(ccc(C4=CCCCC4)c3=O)[C@@H]1N2CC1CC1
    -2, -1, 1.3
49	Cc1ccc(S(=O)(=O)N(C)C[C@H]2OCCCC[C@H](C)Oc3ccc(NC(=O)C4CCCCC4)cc3C(=O)N([C@@H](C)CO)C[C@H]2C)cc1
    -2, -4, -2.1
50	COc1ccc(NC(=O)N(C)C[C@@H]2OCCCC[C@H](C)Oc3ccc(NC(=O)CCCN(C)C)cc3C(=O)N([C@H](C)CO)C[C@@H]2C)cc1
    -3, 0, 2.6
51	COc1ccc(-c2ccc([C@@H]3[C@@H](C#N)N(C(=O)C4CCOCC4)[C@H]3CO)cc2)cc1
    -1, 1, 2.6
52	COc1ccc(NC(=O)N(C)C[C@H]2OCc3ccccc3-c3ccccc3C(=O)N([C@H](C)CO)C[C@H]2C)cc1
    14, 13, -1.2
53	Cc1noc(C)c1NC(=O)Nc1ccc2c(c1)C(=O)N([C@@H](C)CO)C[C@H](C)[C@H](CN(C)S(=O)(=O)c1cccs1)OCCCC[C@H](C)O2
    -2, -1, 1.4
54	C[C@H](CO)N1C[C@H](C)[C@@H](CN(C)Cc2ccc3c(c2)OCO3)OCc2ccccc2-c2c(n(C)c3ccccc23)C1=O
    x, u, x
55	Cc1ccc(S(=O)(=O)N(C)C[C@H]2Oc3c(NC(=O)Nc4cccc5ccccc45)cccc3C(=O)N([C@H](C)CO)C[C@@H]2C)cc1
    4, 4, -0.1
56	OC[C@H]1[C@@H](c2ccc(-c3cccnc3)cc2)[C@H]2CN(CC3CC3)CCCCN21
    8, 30, 22
57	CC(C)(O)C#Cc1ccc([C@H]2[C@H]3CN(C(=O)c4ccc(F)cc4)CCCCN3[C@H]2CO)cc1
    9, 17, 8.5
58	O=C(NC1CCCC1)N1CCCCN2[C@@H](CO)[C@@H](c3ccc(-c4cccnc4)cc3)[C@@H]2C1
    6, 24, 19
59	COc1cccc(CN2CC3(CCN(C(C)=O)CC3)c3c(n(C)c4cc(OC)ccc34)[C@H]2CO)c1
    -3, -2, 1.8
60	CCNC(=O)C[C@H]1CC[C@@H]2[C@H](COC[C@@H](O)CN2C(=O)c2ccccn2)O1
    -3, 1, 4.5

Single values from the results shown.
entry 34 in DUX4 inh difference is entered as 1
entry 5 in DUX4 inh control is entered as -1.5
entry 4 in DUX4 inh difference is entered as -2
entry 49 in DUX4 inh is entered as -4

Reformatted tab-delimited: part of the list above.
item	structure	DUX4 inh difference	DUX4 inh	DUX4 inh control
42	COc1cccc(-c2ccc(C3[C@H]4CNC[C@@H]3N4Cc3cc(F)ccc3F)cc2)c1 (stereo partly specified)	-9&-7	-2&17	7.0&24
43	C[C@H]1CN([C@@H](C)CO)C(=O)Cc2cc(NS(=O)(=O)c3cn(C)cn3)ccc2O[C@H]1CN(C)C(=O)NC1CCCCC1	-3	-1	2.2

(listing goes on)
Values in the order – DUX4 inh difference, DUX4 inh, DUX4 inh control
61	CCCNC(=O)N1C[C@H]2[C@@H](c3ccccc31)[C@H](CO)N2C(=O)CN1CCOCC1
    -1, 4, 5.4
62	CO[C@H]1CN(C)C(=O)c2cc(NC(=O)C3CCCCC3)ccc2OC[C@@H](C)N(C)C[C@H]1C
    7, 3, -3.7
63	COC(=O)[C@H]1[C@H](CO)[C@H]2Cn3c(ccc(C4=CCCC4)c3=O)[C@H]2N1CC1CCOCC1
    2, 6, 3.7
64	COc1ccc(S(=O)(=O)Nc2ccc3c(c2)C(=O)N([C@@H](C)CO)C[C@@H](C)[C@H](CN(C)Cc2ccc(C(F)(F)F)cc2)OCCCC[C@@H](C)O3)cc1
    0, 1, 1.8
65	C[C@H](CO)N1C[C@H](C)[C@@H](CN(C)C(=O)C2CCCCC2)Oc2cc(C3=CCCCC3)ccc2S1(=O)=O
    1, -2, -2.9
66	CCC(=O)Nc1ccc2c(c1)OC[C@@H](C)N(Cc1ccccc1F)C[C@H](C)[C@@H](OC)CN(C)C2=O
    0, -5, -4.4
67	COc1cccc(-c2ccc3c(c2)O[C@H](CN(C)C(=O)c2ccccc2F)[C@@H](C)CN([C@@H](C)CO)S3(=O)=O)c1
    0, -1, -1.3
68	COC(=O)C[C@@H]1C[C@@H]2c3cc(NS(=O)(=O)c4ccc(F)cc4)ccc3O[C@@H]2[C@H](CO)O1
    5, 2, -3.7
69	C[C@H](CO)N1C[C@H](C)[C@H](CN(C)S(=O)(=O)c2cn(C)cn2)OCc2cnnn2CCCC1=O
    2, 7, 5.4
70	O=C(Nc1ccccc1F)N1CCCCN2[C@H](CO)[C@H](c3ccc(C4=CCCC4)cc3)[C@H]2C1
    3, 4, 1.0
71	CNC[C@H]1Oc2cc(C#CCC3CCCC3)ccc2S(=O)(=O)N([C@@H](C)CO)C[C@@H]1C
    0, -1, -0.9
72	COCC(=O)N1[C@H](C#N)[C@@H](c2ccccc2-c2cccc(C)c2)[C@@H]1CO
    7, 9, 2.7
73	C[C@H]1CN([C@@H](C)CO)C(=O)c2cc(C3=CCCC3)cnc2O[C@H]1CN(C)C(=O)c1ccc2c(c1)OCO2
    1, 1, 0.1
74	C/C=C/c1ccc([C@H]2[C@H](CO)N(C(C)=O)C23CN(S(C)(=O)=O)C3)cc1
    3, 3, -0.2

Screen by screen, from the results shown:
Compounds 68 to 74 in DUX4 inh difference: 5, 2, 3, 0, 7, 1, 3
Compounds 68 to 74 in DUX4 inh: 2, 7, 4, -1, 9, 1, 3
Compounds 68 to 74 in DUX4 inh control: -3.7, 5.4, 1.0, -0.9, 2.7, 0.1, -0.2

Source: PubChem (Broad Institute)

The list is partial; the hit share may differ from the screen's.
